# Compound activity as filed in PubChem BioAssay.
# Menin-MLL FL inh: qHTS Assay for Inhibitors Targeting the Menin-MLL Interaction in MLL Related Leukemias: Competition With Fluorescein Labeled MLL-derived Peptide; Fluorescence polarization, fluorescein-MLL peptide displacement from menin; FP activity change, % at 61.4 µM; 290,000 tested, under 10 active; AID 1766, 2009; inconclusive = falling polarisation curve, or a change in total fluorescence; inactive = total fluorescence flat and polarisation flat or rising; no compound was filed as active; the % refers to the polarisation; negative = inhibition;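 further: % of control where 0% means no effect; inhibitors lower the polarisation; unlabelled MLL peptide was the positive control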
# Active calls of the source: *; ? = inconclusive; [ ] = dose if it differs, or a comment. A portion of the library. The share of hits here may be higher or lower than overall.
SMILES,Menin-MLL FL inh
CSCC[C@H](NC(=O)[C@H](Cc1ccc(OS(=O)(=O)O)cc1)NC(=O)[C@@H](N)CC(=O)O)C(=O)NCC(=O)N[C@@H](Cc1c[nH]c2ccccc12)C(=O)N[C@@H](CCSC)C(=O)N[C@@H](CC(=O)O)C(=O)N[C@@H](Cc1ccccc1)C(N)=O,-3.0
Cc1cc2oc(=O)cc(-c3ccccc3)c2c(C)c1-c1sccc1C=O,10[94.6 µM]
COc1cccc(-c2cc(C(=O)Nc3ccc4c(c3)OCCO4)c3ccccc3n2)c1,0.9
CO[C@@H]1COC(=O)[C@H](COCc2ccccc2)NC(=O)C/C=C\[C@@H](C)[C@H](OC)COC(=O)[C@@H](C)NC(=O)C/C=C\[C@H]1C,-2.0[11.7 µM]
CSc1ccccc1N1CCN(CCCCCC(=O)NC2CCCc3ccccc32)CC1 (stereo not given),?
CCN(CC)CCCn1c(-c2ccccc2)nc2c(NCc3ccccc3)nc(C)nc21,2.5
COc1ccc(Oc2ncc3ncc(=O)n(C4CC4)c3n2)cc1,0.1
N[C@H](CO)Cc1cnc[nH]1,13
C#CCCCO/N=C1/C[C@@H](O)[C@@H](O)[C@@H]2[C@@H]3C(=O)N(C(C)(C)C)C(=O)[C@H]3CC[C@H]12,2.0[11.7 µM]
Cc1ccccc1-c1nc(NC2CC2)c2ccccc2n1,0.7
Cc1cc(O)c2c(c1)OC1(C)CCC3C(C)(C)CCCC34COC2C14 (stereo not given),0.9
CCS(=O)(=O)N(C)[C@@H]1c2cc(C#N)ccc2OC(C)(C)[C@H]1O,?
CCC(=O)O[C@H](CC(=O)O)C[N+](C)(C)C,?
CC/C=C\C/C=C\C/C=C\C/C=C\C/C=C\CCC(=O)O[C@H](COCCCCCCCCCCCCCCCC)COP(=O)([O-])OCC[N+](C)(C)C,-0.2
CC(C)c1cccc2nc3c(c([Si](C)(C)C(C)(C)C)c12)Cn1c-3cccc1=O,?
CCNc1ncc2nc(-c3ccc(OC)cc3)c(=O)n(CCC#N)c2n1,?
COc1ccccc1CNc1ccnc(-c2ccc(N(C)C)cc2)n1,-3.2
COc1ccc(CNc2nc(-c3cccnc3)nc3ccccc23)c(OC)c1,-4.0
COC(=O)N1C2CC3(C)CC(=O)CC1(C)C3c1ccccc12 (stereo not given),0.0[11.7 µM]
Oc1ccccc1-c1cc(C(F)(F)F)[nH]n1,1.2

# A second format for 4 compounds above.
structure: C#CCCCO/N=C1/C[C@@H](O)[C@@H](O)[C@@H]2[C@@H]3C(=O)N(C(C)(C)C)C(=O)[C@H]3CC[C@H]12
- Menin-MLL FL inh: 2.0[11.7 µM]

structure: Cc1ccccc1-c1nc(NC2CC2)c2ccccc2n1
- Menin-MLL FL inh: 0.7

structure: Cc1cc(O)c2c(c1)OC1(C)CCC3C(C)(C)CCCC34COC2C14 (stereo not given)
- Menin-MLL FL inh: 0.9

structure: CCS(=O)(=O)N(C)[C@@H]1c2cc(C#N)ccc2OC(C)(C)[C@H]1O
- Menin-MLL FL inh: ?

# An excerpt of the results above, for reference:
SMILES,Menin-MLL FL inh
CSc1ccccc1N1CCN(CCCCCC(=O)NC2CCCc3ccccc32)CC1 (stereo not given),?
CCN(CC)CCCn1c(-c2ccccc2)nc2c(NCc3ccccc3)nc(C)nc21,2.5
COc1ccc(Oc2ncc3ncc(=O)n(C4CC4)c3n2)cc1,0.1
N[C@H](CO)Cc1cnc[nH]1,13

# Continuation.
SMILES,Menin-MLL FL inh
Cn1c(SCC(=O)N=Nc2c(O)[nH]c3ccccc23)nc2ccccc21,1.9
O=c1[nH]c2cc(Cl)ccc2c(O)c1-c1ccc(Oc2ccccc2)cc1,-1.3
COc1ccccc1/C=N/NC(=O)C1=NNC(c2ccccc2)(c2ccccc2)C1,-0.1
N#CCCCS(=O)(=O)c1nnnn1-c1ccc(Br)cc1,0.6
Cc1ccc(CNC(=O)/C(C#N)=C\c2ccc(N(C)C)cc2)cc1,?
CCOc1ccc(NC(=O)CN2CCC(NC(=O)C3CCCCC3)CC2)cc1,1.2
Cc1nc(NC2CCCCC2)c2nc(-c3ccccc3)n(CCCN3CCCCC3C)c2n1 (stereo not given),0.9
CCOc1cc(CNc2ccc3c(c2)CCC3)ccc1OC,1.7
O=S(=O)(CCc1ccccc1)c1nnnn1-c1ccccc1,1.4
Cc1ccc(/C(=C/CN2CCCC2)c2ccccn2)cc1,?
CN(C)c1ncc2nc(-c3ccccc3)c(=O)n(CCC#N)c2n1,?
C[C@]12CC[C@H]3c4ccc(OC[C@H]5CO5)cc4CC[C@H]3[C@H]1CC[C@@H]2O,-1.9[11.7 µM]
O=C(Nc1cccc(F)c1)N1CCC2(CC1)CCN(C(=O)c1ccco1)CC2,2.9
COc1ccc2[nH]cc(CCNc3cc(-c4cccc(C#N)c4)ncn3)c2c1,0.2
CCCc1cc2c(c(=O)o1)C(O)C1OC1C2=O (stereo not given),?
CSCC[C@H](NC(=O)[C@H](CCC(N)=O)NC(=O)[C@H](CCCCN)NC(=O)[C@H](CCCNC(=N)N)NC(=O)[C@H](Cc1ccc(O)cc1)NC(=O)[C@H](CCCNC(=N)N)NC(=O)[C@H](CO)NC(=O)[C@H](Cc1ccc(O)cc1)NC(=O)[C@H](CO)NC(=O)[C@H](CC(=O)O)NC(=O)[C@@H](NC(=O)[C@@H](N)Cc1ccccc1)[C@@H](C)O)C(=O)N[C@@H](C)C(=O)N[C@H](C(=O)N[C@@H](CCCCN)C(=O)N[C@@H](CCCCN)C(=O)N[C@@H](Cc1ccc(O)cc1)C(=O)N[C@@H](CC(C)C)C(=O)N[C@@H](C)C(=O)N[C@@H](C)C(=O)N[C@H](C(=O)N[C@@H](CC(C)C)C(=O)NCC(=O)N[C@@H](CCCCN)C(=O)N[C@@H](CCCNC(=N)N)C(=O)N[C@@H](Cc1ccc(O)cc1)C(=O)N[C@@H](CCCCN)C(=O)N[C@@H](CCC(N)=O)C(=O)N[C@@H](CCCNC(=N)N)C(=O)N[C@H](C(=O)N[C@@H](CCCCN)C(=O)N[C@@H](CC(N)=O)C(=O)N[C@@H](CCCCN)C(N)=O)C(C)C)C(C)C)C(C)C,-3.8
COc1cc(COc2cc(N)c(Cl)cc2C(=O)CCC2CCN(CCNS(C)(=O)=O)CC2)cc(OC)c1,?
Cc1cc(C)c(-c2cc([C@H](C)O/N=C3/[C@H]4OC4[C@@H](O)[C@H]4[C@H]3CCn3c(=O)n(-c5ccccc5)c(=O)n34)on2)c(C)c1 (stereo not given in full),-1.5[11.7 µM]
Cc1cnc(C(=O)O)cn1,1.6
COC(=O)C/C=C\[C@@H](C)[C@@H](/C=N\O[C@@H](C)CN1CCCCc2nc(C)c(C)cc21)NS(=O)(=O)c1ccc(C)cc1,-0.9[11.7 µM]
CCN(CC)CCC[C@H](C)Nc1c2ccc(Cl)cc2nc2ccc(OC)cc12,?
COc1ccc(O[C@H]2C=C[C@@H](c3ccccc3)O[C@@H]2CO/N=C(\C)CCC(=O)OC[C@H]2O[C@H](c3ccccc3)C=C[C@@H]2Oc2ccc(OC)cc2)cc1,-1.2
Cc1ccc(S(=O)(=O)N(C)c2cccc3cccnc23)cc1,-3.3
C=C(C)C1Cc2c(ccc(C(=O)O)c2O)O1 (stereo not given),-1.4
NC(=O)c1ccccc1-c1nc(-n2ccnc2)c2ccccc2n1,-1.2
Brc1ccc2c(c1)c1cc(Br)ccc1n2CC1CO1 (stereo not given),5.8
C(=C\c1ccc(/C=C/c2ccccc2)nn1)/c1ccccc1,2.8
O=C(c1cccc(F)c1)N1CCC2(CC1)CN(Cc1ccccc1)C2,0.2
OCCN1CCN(C(c2cccs2)c2ccc3cccnc3c2O)CC1 (stereo not given),-5.1
CC1(C)C2CC[C@]1(C)[C@@H](O)C2,2.6
C=CC[C@@](C(C)=O)(C(=O)OC)C(NC(=O)OC)c1ccccc1 (stereo not given in full),0.1
O=[N+]([O-])c1ccc2sc(SCc3nc4ccccn4c3Br)nc2c1,-1.0
CC1=C(C)CC(C(=O)NCc2cccc(Cl)c2)C(C(=O)O)C1 (stereo not given),9.2
Cn1cc(-c2nc3cncnc3n(Cc3ccccc3Cl)c2=O)c2ccccc21,?
CCCCCCCCCCCCCCCC(=O)NCC(COP(=O)([O-])OCC[N+](C)(C)C)OCC (stereo not given),8.1
Cc1ccc(S(=O)(=O)Nc2cccc3ccc[n+](C)c23)cc1,0.7
O=C(Nc1cccc(F)c1)N1CC2(CCN(C(=O)c3cccc(F)c3)CC2)C1,0.5
COc1cccc(-c2nnc3n2N=C(c2c(OC)cccc2OC)CS3)c1OC,2.0
CCc1cc2c(=O)nc3n(c2s1)Cc1ccccc1/C3=C(/O)c1ccc(F)cc1,?
O=C(c1cnccn1)N1CCC2(CC1)CCN(c1ccccn1)CC2,1.4
O=C1C[C@@H](O)[C@@H](O)[C@@H]2[C@H]3C(=O)N(c4ccc(F)cc4F)C(=O)[C@@H]3CC[C@H]12,3.2[11.7 µM]
COc1cccc2nc(-c3cccs3)nc(NN3C(=O)C=C(C)C3=O)c12,1.6
COc1ccc(N2C(C(C)=O)=NN(c3ccccc3)C2c2cccs2)cc1 (stereo not given),14
COc1cccc(Cn2c(=O)c(-c3cccs3)nc3cnc(N4CCOCC4)nc32)c1,?
CN(C)c1ccc(-c2ccc3ncnc(N(C)Cc4ccco4)c3c2)cc1,4.5
CC(C)N1CCc2c(sc(NC(=O)c3ccc([N+](=O)[O-])o3)c2C(N)=O)C1,0.8
Cc1noc(C)c1-c1ccc2ncnc(NCC3CCN(C)CC3)c2c1,-9.5
O=C1c2ccccc2C(=O)C2OC12 (stereo not given),?
CCOC(=O)C1Cc2cc3c(cc2C1=O)CC(C(=O)OCC)C3=O (stereo not given),?
CCOC(=O)OCC1OC(C#Cc2ccccc2)C=CC1OC(=O)OCC (stereo not given),0.8[11.7 µM]
COc1cccc(Cn2c(=O)c(-c3cc(F)cc(F)c3)nc3cnc(N4CCOCC4)nc32)c1,-3.8
COc1ccc(N(CC(=O)NCCC2=CCCCC2)S(=O)(=O)c2ccc(C)cc2)cc1,0.1
OC[C@@H]1O[C@@H](n2cnc3c(N[C@H]4CCC[C@@H]4O)ncnc32)[C@H](O)[C@H]1O,-20
CC(C)=CCC/C(C)=C/CC/C(C)=C/CO,?
COCCn1c(=O)c(-c2ccc(F)cc2)nc2cnc(OC)nc21,-0.4
COC(=O)[C@@H](O)CC[C@@H](C)Cc1c(OC)c(OC)c(C)c(OC)c1OC,-5.2
COc1cc2ccccc2cc1C(=O)Nc1sc2c(c1C(N)=O)CCN(C(C)C)C2,16
Cc1nc(-c2coc3c(O)c(O)ccc3c2=O)cs1,2.6
CC(C)CO/N=C1/[C@H]2O[C@@H]2[C@@H](O)[C@H]2[C@H]1CCn1c(=O)n(C)c(=O)n12,-1.3[11.7 µM]
Cn1cccc1C(=O)N1CCC2(CCCN(c3ccccc3)C2)CC1,?
# Next section:
SMILES,Menin-MLL FL inh
O=C(c1cnccn1)N1CCC2(CCCN(Cc3ccncc3)C2)CC1,-4.8
C/C(=N\Nc1nc2ccccc2[nH]1)c1ccccn1,15
O=c1c(CCc2ccccc2)nc2cnc(N3CCNCC3)nc2n1C1CC1,4.1
C=Cc1c(C)/c2[n-]/c1=C\c1[n-]c(c(CC)c1C)/C=c1\[n-]c3c(c1C)C(=O)C(C(=O)[O-])C=3c1[n-]c(c(C)c1CCC(=O)[O-])\C=2.[Cu].[Na+].[Na+] (stereo not given),-27
COc1ccccc1C1=Nn2c(COc3ccccc3)nnc2SC1,1.5
CC(C)=CCC/C(C)=C/CO/N=C1/C[C@@H](O)[C@@H](O)[C@@H]2[C@@H]3C(=O)N(C[C@@H]4CCCO4)C(=O)[C@H]3CC[C@@H]12,-1.4[11.7 µM]
COCCn1c(=O)cnc2cnc(Oc3ccc(OC)cc3)nc21,2.6
CCNc1ncc2nc(-c3cc(F)cc(F)c3)c(=O)n(C[C@H]3CCCO3)c2n1,1.7
CC[C@H](C)[C@@H]1O[C@]2(CC[C@@H]1C)C[C@H]1C[C@H](CC=C(C)[C@@H](O[C@@H]3C[C@H](OC)[C@H](O[C@@H]4C[C@H](OC)[C@H](O)[C@H](C)O4)[C@H](C)O3)[C@@H](C)C=CC=C3CO[C@@H]4[C@@H](O)C(C)=C[C@@H](C(=O)O1)[C@]34O)O2,-1.4[24.8 µM]
COC(=O)[C@@]1(Cc2ccc(F)cc2)[C@H]2c3cc(C(=O)N4CCCC4)n(Cc4ccccn4)c3C[C@H]2CN1C(=O)c1ccccc1,0.4
O=c1c(-c2cccc(F)c2)nc2cncnc2n1-c1ccccc1,8.7
CC(=O)Nc1cccc(C(=O)/C=C/c2ccc(/C=C/C(=O)c3cccc(NC(C)=O)c3)cc2)c1,-1.0
CC1(C)C(=O)C(c2ccccc2)=C2CN3C(=O)N(CCc4ccccc4)C(=O)C3(Cc3ccccc3)C=C21 (stereo not given),-1.3
Cc1ccc(-n2c(-c3ccccc3)cc(/C=N/NC(=O)CC#N)c2-c2ccccc2)cc1,0.8
CCCCc1nc2c(c3c1C[C@H](C)OC3)CN(C(=O)NCCCC(=O)OCC)CC2,0.7[11.7 µM]
CCOC(=O)N1CCC(N2Cc3cccc(C(=O)NCc4ccc(OC)cc4)c3C2=O)CC1,4.1
O=C(CNc1c(Br)cc(Br)cc1Br)NN=C1CCCCC1,0.0
Cc1ccc2[nH]c(=O)c(CN(CC3CCCO3)C(=O)c3ccco3)cc2c1 (stereo not given),2.0
C=CCOC(=O)N[C@H](/C(C(=O)OC)=C(\C)NCc1ccccc1)c1cccc(OC)c1,3.1
COc1ccc(C2c3c(nc[nH]c3=O)Oc3nc[nH]c(=O)c32)cc1,2.4
